Compound activity deposited in PubChem by National Center for Advancing Translational Sciences (NCATS).
VDR inhibitor = blocks the human vitamin D receptor. Potency, µM, for the others: max response, negative = inhibition, hits mostly inhibitors. VDR-SRC2-3 peptide fluorescence polarization, 2 h. 0.93% of 400,000 active. P11473; active = well fitted inhibition curve with a large enough effect; inconclusive = small, poorly fitted or top-dose-only effect, or another doubt; inactive = no such curve, though single readings can be large or run the other way; also: series mostly up to about 120 µM
Target sequence (P11473 whole entry, looked up): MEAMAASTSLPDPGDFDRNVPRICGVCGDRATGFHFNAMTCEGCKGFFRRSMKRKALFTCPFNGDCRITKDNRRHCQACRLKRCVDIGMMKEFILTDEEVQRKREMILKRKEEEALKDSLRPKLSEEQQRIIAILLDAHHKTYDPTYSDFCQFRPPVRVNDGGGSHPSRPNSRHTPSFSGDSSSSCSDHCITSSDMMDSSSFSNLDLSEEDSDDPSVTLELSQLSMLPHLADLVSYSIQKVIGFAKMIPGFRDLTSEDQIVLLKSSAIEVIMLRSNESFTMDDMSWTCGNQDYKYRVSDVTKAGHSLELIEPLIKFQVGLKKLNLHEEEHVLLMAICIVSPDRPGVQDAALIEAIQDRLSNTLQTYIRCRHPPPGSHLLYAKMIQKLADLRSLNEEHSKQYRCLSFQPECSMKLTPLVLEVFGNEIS
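After 23 nl compound addition and a short centrifugation, plates sat for 2 hours at ambient temperature; polarization of fluorescence then indicated loss of VDR binding to peptide SRC2-3.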
Numbers without * were called inactive; ? = inconclusive; & = joins results of further samples; [ ] = remark or other dose. % is scaled to controls: 0 for no effect and ±100 for the full control effect; potency is read from the fitted curve at half-maximal effect. Not all compounds are listed (hit frequency here may not be typical).

SMILES | VDR inhibitor
CC(C)c1ccc(NC(=O)c2ccc3c(c2)CCN3S(C)(=O)=O)cc1 | 9.3%
Cc1sc(NC(=O)Cn2c(=O)oc3ccccc32)nc1-c1ccc(Cl)cc1 | -14.7%
CCCN1C(=O)c2cc(C(=O)Nc3ccc(OC)c(OC)c3)ccc2C1Nc1ccc(OC)c(OC)c1 (configuration not stated) | 2.8%
C=C(C)C(=O)N1CC2(CC(c3cccc(NC(=O)COc4ccc(Cl)cc4)c3)=NO2)C[C@@H]1C(N)=O (some centres not stated) | -19.6%
Cc1ccc(NC(=O)c2oc3ccccc3c2NC(=O)C2CC2)cc1 | -7.4%
O=C(Cc1cccc(NC(=O)C2CCN(C(=O)C3CC3)CC2)c1)Nc1cccc(C(=O)N2CCOCC2)c1 | -8.5%
COC(=O)c1c(NC(=O)c2ccccc2OC)sc(C(=O)N2CCOCC2)c1C | -4.1%
Cc1cccc(OCCCC(=O)NC(C)c2ccccc2)c1 (configuration not stated) | -7.5%
NC(=O)c1nn(-c2ccccc2)nc1N | 14.4%
Cc1ccnc(NC(=O)C2CCN(S(=O)(=O)c3c(C)c(C)cc(C)c3C)CC2)c1 | 3.8%
O=C(NCCS(=O)(=O)N1CCN(Cc2ccccc2)CC1)c1ccccc1 | -5.4%
O=C(NCCSCc1ccco1)Nc1cccc(Cl)c1 | 11.9%
N/C(Cn1nnc(-c2ccccc2)n1)=N\O | -12.9%
COC(=O)N/N=C/c1cccc([N+](=O)[O-])c1 | -6.9%
C=C(C)COc1ccc(-c2[nH]ncc2-c2ccc(OC)c(OC)c2)c(O)c1 | 17.2%
Cc1ccccc1-n1c(=O)c(C#N)cc2c(=O)n3ccccc3nc21 | 9.9%
CN1C(C)(C)CCCC1(C)C | -22.5%&3.0%&-4.3%
Cc1ccc(C(=O)OCC(=O)NCc2ccc3c(c2)OCO3)s1 | -15.2%
COc1cccc(/C(O)=C2/C(=O)C(=O)N(c3cc(C)on3)C2c2cccs2)c1 (configuration not stated) | 0.6%
Cc1ccc(S(=O)(=O)CCC(=O)OCC(=O)NCc2ccccc2)cc1 | 5.1%
OCCC1CN(Cc2cnc(N3CCCC3)s2)CCN1C1CCCC1 (configuration not stated) | -5.3%
COC(=O)[C@@H]1C[C@@]2(O)[C@H](O)[C@H](O)[C@H](O)C[C@H]2N1Cc1cc(OC)cc(OC)c1 | 1.5%
COc1cccc(CN2CC(C(=O)N(C)Cc3ccnc4ccccc34)CCC2=O)c1 (configuration not stated) | 1.8%
c1ccc(CNc2nc3ccccc3n2CCN2CCOCC2)nc1 | 1.3%
FC(F)(F)c1cc(-c2cccs2)nc2ncnn12 | -0.1%
Cc1ccc(C)c(N2CC(C(=O)Nc3cc(C)on3)CC2=O)c1 (configuration not stated) | -14.4%
O=C(CNC(=O)C1CCCCC1)Nc1ccc(F)c(Cl)c1 | -15.5%
COc1ccc(C2NC(=S)NC3=C2N2CCC3CC2)cc1 (configuration not stated) | -6.5%
CCOC(=O)N1CCC(NC(=O)c2cnn(-c3ccc(C)cc3)c2C2CCN(C(=O)OC(C)(C)C)CC2)CC1 | 4.5%
Cc1nc2ccccn2c(=O)c1NC(=O)c1c(F)cccc1F | 13.4%
CCCCn1c(N)c(N(CCOC)C(=O)CCS(=O)(=O)c2ccc(Cl)cc2)c(=O)[nH]c1=O | -4.2%
Cc1ccccc1NC(=O)C1CC(=O)N(c2ccc3c4c(cccc24)CC3)C1 (configuration not stated) | -5.2%
CCCC(NC(=O)Cc1c(C)c2c(cc(C)c3c(C)coc32)oc1=O)C(=O)O (configuration not stated) | 8.2%
c1ccc(COCC2CCNCC2)cc1 | -3.9%
CCOC(=O)N1CCc2c(sc(NC(=O)C3COc4ccccc4O3)c2C(N)=O)C1 (configuration not stated) | 15.4%
CCOc1ccc(-c2nn[nH]n2)cc1OCC | 43.0%[activator]
O=C(COC(=O)/C=C/c1ccc(OC(F)F)cc1)NC(=O)NC1CCCCC1 | -24.7%
CCOC(=O)C(=O)N/N=C/c1ccco1 | 32.1%[activator]
CC(C)(C)OC(=O)NCc1n[nH]c(=S)n1C1CC1 | -13.1%
Cc1ccc2cc(CN(C(=O)c3ccco3)c3ccccc3C)c(=O)[nH]c2c1 | -14.9%
COc1cc2c(cc1NC(=O)COC(=O)C1CC(=O)N(Cc3ccco3)C1)oc1ccccc12 (configuration not stated) | -11.1%
CC(=O)C1C(=O)c2c(cccc2[N+](=O)[O-])C1=Nc1cccc(Cl)c1 (configuration not stated) | 9.0%
CCCCCCc1nc(C(N)=O)c2[nH]c(=O)n(-c3ccc(OC)cc3OC)c2n1 | -7.8%
CO[C@@H]1O[C@@H]2COC(c3ccccc3)O[C@@H]2[C@@H](OC)[C@@H]1O (some centres not stated) | -7.7%
COc1ccc(/C=C/C(=O)N(C)C2CCS(=O)(=O)C2)cc1OC (configuration not stated) | -9.8%

Quoted from the listing:
Entry for `N/C(Cn1nnc(-c2ccccc2)n1)=N\O` in VDR inhibitor: -12.9%
Entry for `CCOc1ccc(-c2nn[nH]n2)cc1OCC` in VDR inhibitor: 43.0%[activator]

Next records
SMILES | VDR inhibitor
CC(=O)Nc1ccc2c(c1)nc(CCN1CCN(C)CC1)n2C | -14.6%
CC(C)(C)n1nc2c(c1NC(=O)c1ccccc1)CS(=O)(=O)C2 | 13.9%
COC(=O)c1ccc(NCN2C(=O)C3C4CCC(C4)C3C2=O)cc1 (configuration not stated) | 2.6%
COc1ccc(S(=O)(=O)N(CCc2ccccc2)CC(=O)O)cc1Cl | 15.5%
Cc1cccc(NC(=O)C(Cc2ccccc2)n2cccc2)c1 (configuration not stated) | 3.4%
CCOc1ccccc1N(CC(=O)Nc1ccccc1F)S(=O)(=O)c1ccccc1 | -6.5%
COc1ccccc1C(=O)COC(=O)c1nc2nc(C)cc(C)n2n1 | 3.1%
O=C(c1ccc(F)cc1)N1CCN(c2cnn(-c3ccccc3)c(=O)c2Cl)CC1 | -11.0%
O=C1CCC(C(=O)Nc2cccc(C(F)(F)F)c2)N1 (configuration not stated) | 7.2%
CC(NCC(O)COc1ccc2ccccc2c1)c1ccccc1 (configuration not stated) | -0.8%
CC(=O)Oc1cc2c(cc1Cl)C(c1cccs1)CC1(CC(C)(C)NC(=S)N1)O2 (configuration not stated) | ?
CC(=O)Nc1ccc(S(=O)(=O)NCCC(=O)OCC(=O)c2ccc(Br)cc2)cc1 | -2.0%
COc1ccc(-n2c(=O)c3sc4ccccc4c3n(CC(=O)N3CCCC3)c2=O)cc1 | 8.6%
COCCn1c(SCc2ccc(Cl)cc2)nc2c1c(=O)[nH]c(=O)n2C | -1.4%
Cc1cccc(-c2nc3ccccc3c(=O)n2NC(=O)c2cccs2)c1 | -1.5%

Part of the list above in order of SMILES length, ascending:
SMILES | VDR inhibitor
NC(=O)c1nn(-c2ccccc2)nc1N | 14.4%
CC(=O)Nc1ccc2c(c1)nc(CCN1CCN(C)CC1)n2C | -14.6%
COc1ccccc1C(=O)COC(=O)c1nc2nc(C)cc(C)n2n1 | 3.1%
COC(=O)c1ccc(NCN2C(=O)C3C4CCC(C4)C3C2=O)cc1 (configuration not stated) | 2.6%
CCOc1ccccc1N(CC(=O)Nc1ccccc1F)S(=O)(=O)c1ccccc1 | -6.5%

Retrieved by structure from the list above (seven):
SMILES | VDR inhibitor
Cc1cccc(-c2nc3ccccc3c(=O)n2NC(=O)c2cccs2)c1 | -1.5%
CC(=O)Nc1ccc2c(c1)nc(CCN1CCN(C)CC1)n2C | -14.6%
CC(=O)Oc1cc2c(cc1Cl)C(c1cccs1)CC1(CC(C)(C)NC(=S)N1)O2 (configuration not stated) | ?
CCOc1ccccc1N(CC(=O)Nc1ccccc1F)S(=O)(=O)c1ccccc1 | -6.5%
CC(=O)Nc1ccc(S(=O)(=O)NCCC(=O)OCC(=O)c2ccc(Br)cc2)cc1 | -2.0%
COc1ccccc1C(=O)COC(=O)c1nc2nc(C)cc(C)n2n1 | 3.1%
Cc1cccc(NC(=O)C(Cc2ccccc2)n2cccc2)c1 (configuration not stated) | 3.4%

More entries follow:
SMILES | VDR inhibitor
Cc1ccc(CN2CCN(/N=C/c3ccc(C(F)(F)F)cc3)CC2)cc1 | -4.3%
O=C(c1ccc(CS(=O)Cc2cccc(Cl)c2)o1)N1CCN(C2CCCCC2)CC1 (configuration not stated) | 4.0%
COc1ccc(-c2[nH]ncc2CN2CCN(Cc3cccs3)CC2)cc1F | -5.6%
COc1ccc(N=C2NC(=O)S/C2=C\c2ccc(N(C)C)cc2)cc1 | -0.6%
Cc1ccccc1-n1c(SCc2ccc(Cl)cc2)nc2[nH]ncc2c1=O | 12.6%
Cc1csc2nc(COc3ccccc3NC(=O)c3ccco3)cc(=O)n12 | -6.6%
Cc1ccc(N2CC(C(=O)OCC(=O)C(C)(C)C)CC2=O)cc1C (configuration not stated) | -2.9%
COc1cc2ncc3c(-c4ccccc4)nn(CC(=O)NC4CCCCC4)c3c2cc1OC | 0.9%
Cc1ccccc1C(=O)NCCNC(=O)c1ccco1 | 21.1%
COc1ccc(-c2cn3nc(N4CCCC(C(=O)Nc5ccccc5F)C4)sc3n2)cc1 (configuration not stated) | 12.0%
CCOc1ccccc1NC(=O)C(NCC1(N2CCCCC2)CCCCC1)c1ccccc1 (configuration not stated) | -12.0%
O=C(NNC(=O)c1ccccc1F)c1ccc(-c2ccc(Cl)cc2)o1 | -17.6%
CCCCCCN1C=CC(=C/C=C(\C#N)C(=O)OCC)C=C1 | -20.3%
NC(=O)Cn1c2[n+](c3ccccc31)CC(O)CS2 (configuration not stated) | -0.4%
CC(C)(C)n1ncc2c(=O)n(Cc3c(Cl)cccc3Br)cnc21 | 2.4%
Cc1cc(C(=O)NNC(=O)c2ccc(F)cc2)c(C)s1 | -2.1%
Clc1ccc(Nc2ccc3ccccc3n2)cc1 | -6.1%
O=c1c2ccccc2nnn1-c1ccccc1 | -23.7%
c1ccc(-c2ccccc2OCCN2CCCC2)cc1 | -21.2%
Cc1ccccc1Nc1nc(N)nc(COC(=O)c2ccc(O)cc2)n1 | -9.3%
COC(=O)c1c(OC)cc2c(c1C)Oc1c(Cl)c(OC(C)=O)c(Cl)c(C)c1C(=O)O2 | ?
Cc1cccc(NC(=S)N(Cc2ccc(Cl)cc2)Cc2ccc(C(=O)O)cc2)c1 | -13.2%
CCOC(=O)C1CCN(c2nc3ccccc3nc2Cl)CC1 | 0.1%
CC(C)NS(=O)(=O)c1ccc(OCC(=O)Nc2ccccc2F)cc1 | -7.5%
O=C(Nc1ccccc1N1CCOCC1)c1ccc(F)c(S(=O)(=O)N2CCOCC2)c1 | -11.2%
CC(C)(C)C(=O)Nc1ccc(NC(=O)c2ccco2)nc1 | -8.2%
Cc1ccc(S(=O)(=O)N2CCN(C(=O)COC(=O)c3ccc([N+](=O)[O-])o3)CC2)c(C)c1 | -1.7%
Cc1cc(C)c(N(CC(=O)NC(C)(C)C)C(=O)CNC(=O)c2cccs2)c(C)c1 | -3.8%
CCOC(=O)Cn1c(=S)[nH]c2c(oc3ccc(Cl)cc32)c1=O | -8.3%
CCc1nn(CC(=O)NCCN(CC)CC)c(=O)c2cc3occc3n12 | 0.3%
CCOC(=O)CNC(=O)CNC(=O)c1ccc(OC(C)C)cc1 | -6.0%
C=CCNC(=S)NNC(=O)C(CCC(C)C)CC(C)O (configuration not stated) | -10.9%
Cc1ccc(NC(=O)CSc2nnc(-c3ccncc3)n2C)cc1S(=O)(=O)N1CCOCC1 | 5.3%
CC1CCN(c2ncccc2C(=O)O)CC1 | -3.2%
COc1ccccc1NC(=O)N1CCCC1C(=O)Nc1ccc(NC(C)=O)cc1 (configuration not stated) | -3.2%
C=CCC[C@H](Cc1ccc(F)cc1)C(=O)OC[C@@H](Cc1c[nH]c2ccccc12)NC(=O)[C@H](CC=C)CC(=O)N[C@H](CO)Cc1ccccc1 | -9.9%
O=C(NNc1ccccc1Cl)C(O)(c1cccc(C(F)(F)F)c1)c1cccc(C(F)(F)F)c1 | -1.2%
CCOC(=O)c1c(C)c(C(=O)NCCCOC)c(C)n1C | 20.4%
O=C(CCl)c1cc2c3c(c1)CC(=O)N3CCC2 | ?
CN(C)CCCNC(=O)C(=O)NCC(c1cccs1)S(=O)(=O)c1ccc(F)cc1 (configuration not stated) | -6.6%
COc1ccc(N(CC(=O)Nc2ccc(F)c(Cl)c2)S(=O)(=O)c2c(C)noc2C)cc1 | 11.4%
CCN(C(C)=O)c1cnc(C=NNC(N)=S)c2ccccc12 | ?
CC1=NN(C(=O)Cc2ccccc2)C(O)(c2ccccc2)C1 (configuration not stated) | -10.3%
CC(C)CNC(=O)N1[C@H](c2cccs2)[C@@H](C)C(=O)[C@@H](C)[C@@H]1c1cccs1 | 5.2%
Cc1noc(C)c1S(=O)(=O)N(CC(=O)NCc1ccc2c(c1)OCO2)c1ccc(C(C)C)cc1 | -9.8%
CCCCSc1n[nH]c(N)n1 | 11.6%
Cc1nc(-c2ccc(Cl)cc2)sc1C1(C)CC(c2ccncc2)=NO1 (configuration not stated) | -20.7%
CCN=C(NCC)SC1CC(=O)N(c2cccc(OCC)c2)C1=O (configuration not stated) | 7.6%
COc1ccc(NC(=O)C2CC(=O)N(Cc3ccc(C)cc3)C2)cc1S(=O)(=O)N1CCCCC1 (configuration not stated) | 8.1%
O=C(NCc1ccccc1Cl)C1CCC(=O)N(CCCN2CCCC2=O)C1 (configuration not stated) | 17.3%
O=C(Nc1nccs1)c1cc(-c2ccncc2)nc2ccccc12 | 12.5%
Cc1cccc(-n2cnc3sc(C)c(C)c3c2=O)c1 | -2.4%
Cc1cc2nc(-c3cc(NC(=O)c4cc5ccccc5o4)ccc3Cl)oc2cc1C | ?
CCc1cccc(NC(=O)NC(=O)Cn2nnc(C(=O)OC)c2C(=O)OC)c1 | 0.6%
COC(=O)[C@H](C)NC(=O)Nc1ccccc1C(F)(F)F | 21.0%
Cc1noc(NS(=O)(=O)c2ccc(N/C=C\C(=O)c3cccc4ccccc34)cc2)c1C | ?
C[Se]CC[C@H](N)C(=O)O | 20.0%
Cc1cccc(C)c1NC(=O)Nc1ccc2c(c1)OCO2 | 2.1%
Cc1ccc(NC(=O)c2ccc(CN3C(=O)CCn4nc(C)cc43)cc2)c(Cl)c1 | 3.2%
